Biofilm kill mix: mixtures killing C. albicans biofilm | C. albicans biofilm persisters + clotrimazole, fluorescence viability; primary screen in compound mixtures of four per well | inhibition, % at 7.6 µM | hit rate 0.02% among 120,000 | AID 1242;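 active = inhibition above 30.3% in the primary screen of four-compound pools, then above 30% when the compound was retested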;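 note: compounds exposed to preformed 24 h biofilms for 48 h; the number belongs to the whole pool; some results filed as inactive read as strong as hits; inactives centre near 12; 0% = biofilm with clotrimazole alone and 100% = kill control; retested singly at about 60 µM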
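Test system: C. albicans CAF4-2 wild-type biofilms; buffer or medium: RPMI/MOPS medium, pH 7.0; schedule: 24 h biofilm formation, then 48 h compound exposure, 37 °C; detection: Alamar Blue fluorescence; measure: percent inhibition of biofilm viability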
* hit, by the source's call. The list is partial; count on the stated rates, not on these rows.

SMILES | Biofilm kill mix
Cc1ccc2nc(-c3ccccc3)c(CN3CCOCC3)n2c1 | 6
Cc1ccc2c(c1)c(C)cc[n+]2Cc1ccccc1 | 12
Cc1ccc(C)c(SCC(=O)OCC(=O)Nc2ncc(C(F)(F)F)cc2Cl)c1 | 21
COc1ccc(/C=N/NC(=O)c2ccccc2O)cc1Cn1nnc2ccccc21 | 10
O=C(C1CCOCC1)N1CCC(CO)(CCc2ccccc2)CC1 | 7
O=C(CN1CCN(S(=O)(=O)c2ccc3ccccc3c2)CC1)Nc1ccc2c(c1)CCC2 | 11
O=c1[nH]c2cccnc2c2ccsc12 | 27
COC(=O)N/N=C/c1cccc(OCCSc2ccc(Cl)cc2)c1 | 10
O=C(CSC(=S)N1CCCC1)c1cc(Br)cc(Br)c1O | 14
COc1ccc(C(=O)COC(=O)c2ccc(N(C)C)cc2)cc1 | 10
CCOC(=O)CC(=O)N/N=C/c1c(N)n(C)c(=O)n(C)c1=O | 12
CC(=O)c1c(C)[nH]c(C(=O)OCc2ccccc2)c1C | 15
CCn1c(CNc2ccc(OC)cc2)nnc1SCC(=O)Nc1ccc(F)cc1 | 7
Cc1ccc(SCC(=O)NC(=O)NCc2ccccc2)c(C)c1 | 5
CC(C)(Oc1ccc(Cl)cc1)C(=O)NC1CCSC1=O (stereo not given) | 11
CCOC(=O)COc1nc(-c2ccc(C)cc2)cc(-c2ccco2)c1C#N | 18
C/[N+]([O-])=C\C1C(=O)CCCC1=O | 14
CCOc1ccc(/C=N/NC(=O)CSc2ccccn2)cc1O | 23
Fc1ccc(N/N=C/c2ccc(N3CCOCC3)cc2)c(F)c1 | 11
O=C(COc1ccc2ccccc2c1)NNC(=O)Cc1ccccc1 | 31
Cc1ccc(-n2nc(C)c(/C=N/n3c(C)n[nH]c3=S)c2Cl)cc1 | 7
CC1(C)Cc2c(sc(/N=C/N3CCCC3)c2C#N)C(C)(C)N1 | 8
CN(C1CCS(=O)(=O)C1)S(=O)(=O)c1ccccc1[N+](=O)[O-] (stereo not given) | 8
COc1ccc(NC(=O)C2CCCN(c3nc(C)cc(C)n3)C2)cc1 (stereo not given) | 19
CCC(C)NS(=O)(=O)c1ccc(OCC(=O)NCc2ccccn2)cc1 (stereo not given) | -1
COc1ccc(C[C@H]2CN3C(=NC[C@@H]3Cc3ccccc3)N2CCNC(=O)c2ccc(C)c(Br)c2)cc1 | 23
COc1cc2c(cc1OC)CN(C(=O)CCN1C(=O)C3CCCCC3C1=O)CC2 (stereo not given) | -2
CC(=O)Nc1ccc(-c2csc(NC(=O)Nc3ccccc3)n2)cc1 | 7
CCCN(CC(=O)Nc1ccccc1C)C(=O)c1cc(=O)[nH]c2ccccc12 | 17
CN1/C(=C\C(=O)c2ccccc2Cl)c2ccccc2CC1(C)C | 16
COc1ccc(-n2nc(C(=O)NCC(=O)NCc3ccccc3OC)c3ccccc3c2=O)c(OC)c1 | 15
Brc1ccc(-c2noc(C3CCCCC3)n2)cc1 | 7
OC1(c2ccc(Cl)cc2)CN(c2ccccc2)C2=[N+]1CCS2 (stereo not given) | 25
Cc1ccc(N2C(=O)c3ccccc3C2=O)cc1C | 8
Cc1cccn2c(=O)c3cc(C(=O)O)n(C)c3nc12 | 3
COc1ccc(CNC(=O)N[C@H](C(=O)O)C(C)C)cc1OC | 5
O=C(COC(=O)c1ccc([N+](=O)[O-])s1)Nc1ncc(C(F)(F)F)cc1Cl | 14
Cc1ccc(C)n1-c1ccc(C(=O)Nc2ccccc2)cc1 | 14
C[C@H](NC(=O)c1ccc(Cl)cc1)C(=O)NCCc1ccc(S(N)(=O)=O)cc1 | 18
CCOc1ccc(NC(=S)NC(C)c2cccs2)cc1 (stereo not given) | 16
CN(c1ccccc1)S(=O)(=O)c1cccc(C(=O)OCC(=O)NCc2ccco2)c1 | -3
Cc1cc(C)n(C(=O)c2c([N+](=O)[O-])cnn2C)n1 | 10
Cn1nnc(NC(=O)c2cccc([N+](=O)[O-])c2)n1 | 12
COc1ccc(NC(=S)N2CCN(CCN=CC3=C(O)CC(c4ccccc4)CC3=O)CC2)cc1 (stereo not given) | 12
Cc1cc(C)n(CCCC(=O)O)n1 | 26
CC(=O)n1cc(N(C(=O)CCl)c2ccc(Cl)cc2)c2ccccc21 | 8
CC1=C(C(=O)OCC(Br)(Br)Br)C(c2ccc(Br)cc2)NC(=O)N1CCCC(=O)O (stereo not given) | 16
CC(=O)Cc1nsc(Nc2ccc(F)cc2)n1 | 10
Nc1cccc(CCc2nc3cc4ccccc4cc3[nH]2)c1 | 10
CSc1ccc(C2c3[nH]c4ccccc4c3CCN2C(=O)c2cc(C)n(C)n2)cc1 (stereo not given) | 21
C=CCn1c(SCC(=O)NC23CC4CC(CC(C4)C2)C3)nc2cc(C(=O)O)ccc2c1=O | 18
O=C(Nc1nccs1)c1ccccc1[N+](=O)[O-] | 21
O=C(Nc1cccc([N+](=O)[O-])c1)c1ccn[nH]1 | 10
COC(=O)Cn1cc(/C=N/NC(=O)COc2cccc3cccnc23)c2ccccc21 | 7
O=c1cc(-c2ccccc2Cl)oc2c(NS(=O)(=O)c3ccccc3OC(F)(F)F)ccc(O)c12 | 8
COc1ccc(Cl)cc1N(C(C)C(=O)NC1CCCC1)S(C)(=O)=O (stereo not given) | 13
CC(=O)Nc1ccc(NC(=O)CN(c2ccc(C(C)C)cc2)S(=O)(=O)c2ccccc2)cc1 | 10
COc1ccc(S(=O)(=O)N2CCOCC2)cc1NC(=O)CSc1nnc(C2CC2)n1N | 17
Cc1ccc(C(=O)Nc2ccc(S(=O)(=O)N3CCCC3)cc2)s1 | 6
C=CCOc1ccc(C=Nc2cccc(Cl)c2)c(O)c1 | 9
Other records follow:
SMILES | Biofilm kill mix
Cc1nc(N2CCOCC2)nc(Oc2ccccc2F)c1[N+](=O)[O-] | 16
CN(C)c1ccc(C(=S)Nc2ccccc2)cc1 | 6
Nc1oc2ccc(F)cc2c(=O)c1C=O | 11
O=C(NCCc1nc2ccccc2[nH]1)c1cc([N+](=O)[O-])cc([N+](=O)[O-])c1 | 19
Cc1ccc(S(=O)(=O)NNC(=O)c2c(O)c3ccccc3[nH]c2=O)cc1 | 15
CN(CCn1ccnc1)C(=O)CC1C(=O)NCCN1Cc1ccccc1C(F)(F)F (stereo not given) | 19
O=C(CCNc1ccc(Br)cc1)c1cccc([N+](=O)[O-])c1 | 18
COc1cccc(C(=O)NNC(=O)Cc2ccc(Cl)cc2)c1 | 6
Nc1nnc(/C=C/c2ccccc2Cl)s1 | 8
O=C(COC(=O)c1ccc(Br)o1)Nc1ncc(Cl)cc1Cl | 3
COc1ccc(/C=C(\C#N)C(=O)NC2CCS(=O)(=O)C2)cc1OC (stereo not given) | 5
CN1CCN(CC(O)COc2ccc(C34CC5CC(CC(C5)C3)C4)cc2)CC1 (stereo not given) | 12

Individual results from the entries so far.
CN(C)c1ccc(C(=S)Nc2ccccc2)cc1 in Biofilm kill mix = 6
CN1CCN(CC(O)COc2ccc(C34CC5CC(CC(C5)C3)C4)cc2)CC1 (stereo not given) in Biofilm kill mix = 12

Next part
SMILES | Biofilm kill mix
CCOc1ccc(N(CC(=O)Nc2cccc(N(C)S(C)(=O)=O)c2)S(=O)(=O)c2ccccc2)cc1 | 16
Cc1cc(C)n2nc(N)c(N=Nc3ccc(Cl)cc3)c2n1 | 9
NC(=O)c1ccsc1NC(=O)c1ccc2c(c1)CCCC2 | 11
CC1CC1C(=O)OCC(=O)Nc1ccc2[nH]c(=O)[nH]c2c1 (stereo not given) | 8
O=C1NC2(CCc3ccccc3C2)C(=O)N1CCOc1cccc(Cl)c1 (stereo not given) | -2
Cc1ccc(-n2c(SCC3CNC(=O)O3)nnc2-c2ccccc2)cc1C (stereo not given) | 17
Cc1cc(NC(=O)CSc2nnc(NC(=O)C3CC(=O)N(c4ccccc4C)C3)s2)no1 (stereo not given) | 11
Cc1ccc(S(=O)(=O)N2CCN(CC(=O)N/N=C/c3cc([N+](=O)[O-])ccc3Cl)CC2)cc1 | 13
CCn1c(C)c(P(c2ccccc2)c2ccccc2)[n+]2ccccc12 | 25
O=C(Cn1cnc2ccccc2c1=O)Nc1nnc(C2CC2)s1 | 14
CCOC(=O)C1(CC2CC2)CCN(C(=O)c2cc(C)nc3ccc(CC)cc23)CC1 | 11
COc1ccc(-n2ncc3c(N4CCN(Cc5ccccc5)CC4)ncnc32)cc1 | 15
O=C(OCC(=O)N1CCN(C(=O)c2ccco2)CC1)c1cc(S(=O)(=O)Nc2ccc(Cl)cc2)ccc1O | 4
COCCn1c(SCC(=O)Nc2ccccc2OC)nc2ccccc21 | -5
CCOC(=O)C1(Cc2ccccc2)CCCN(C2CCCC2)C1 (stereo not given) | 13
COC(=O)c1ccccc1NC(=O)CSc1nnc(-c2cccnc2)n1C | 20
CNC(=O)CSc1nc(SC)ns1 | 15
CCOC(=O)N1CCC(=NNc2nc(C)cc(=O)[nH]2)CC1 | 16
O=C(O)C/C=C(\NC(=O)OCc1ccccc1)C(=O)OCc1ccccc1 | -1
O=c1[nH]c2cc3ccccc3cc2nc1C(F)(F)F | 34
CCc1ccc(CN2CCCC(CCC(=O)N3CCN(c4ccccn4)CC3)C2)o1 (stereo not given) | 15
CCN(CC)CCCNC(=S)Nc1ccc(Br)cc1 | 2
O=C(Nc1nnc(SCC(=O)N2CCOCC2)s1)c1ccccc1 | 7
CCN(CC)C(=O)c1ccc(Oc2ccc([N+](=O)[O-])cc2Cl)cc1 | 18
O=c1[nH]c(CSc2nnc3ccccn23)nc2ccccc12 | 15
COc1cc2c(cc1NC(=S)NC(=O)/C=C/c1ccco1)oc1ccccc12 | 12
O=C(Nc1nnc(C2CC2)s1)c1cccnc1Oc1ccc(Cl)cc1 | 15
COc1ccc(OC)c(C2(O)CSC(=Nc3cccnc3)N2Cc2ccco2)c1 (stereo not given) | -2
CC(=O)Nc1ccc(S(=O)(=O)N(C)Cc2ccccc2)cc1 | 19
Cc1nc(-c2ccc(NC(=O)c3ccccc3)cc2)cs1 | 17
Cc1cc(-c2ccccc2)nc(N(C)N)c1S(C)(=O)=O | 14
O=C(COC(=O)c1ccccc1O)Nc1cc([N+](=O)[O-])ccc1Cl | 9
Cc1cccc(NC(=O)CCC(=O)OCc2ccc(Br)cc2)c1 | -22
CC(=O)Nc1cccc(/C(C)=N/NC(=O)c2ccc(O)cc2)c1 | 1
CC(=O)n1cc(N(C(=O)CCl)c2ccc([N+](=O)[O-])cc2)c2ccccc21 | 14
O=C(NCC1CCCO1)c1sc2cc(Cl)ccc2c1Cl (stereo not given) | 16

An excerpt from above in order of molecular weight, rising.
SMILES | Biofilm kill mix
CNC(=O)CSc1nc(SC)ns1 | 15
Cc1cc(-c2ccccc2)nc(N(C)N)c1S(C)(=O)=O | 14
CCOC(=O)N1CCC(=NNc2nc(C)cc(=O)[nH]2)CC1 | 16
Cc1nc(-c2ccc(NC(=O)c3ccccc3)cc2)cs1 | 17
O=c1[nH]c(CSc2nnc3ccccn23)nc2ccccc12 | 15
CC(=O)Nc1cccc(/C(C)=N/NC(=O)c2ccc(O)cc2)c1 | 1
CCOC(=O)C1(Cc2ccccc2)CCCN(C2CCCC2)C1 (stereo not given) | 13
CC(=O)Nc1ccc(S(=O)(=O)N(C)Cc2ccccc2)cc1 | 19
O=C(NCC1CCCO1)c1sc2cc(Cl)ccc2c1Cl (stereo not given) | 16
CCN(CC)CCCNC(=S)Nc1ccc(Br)cc1 | 2
CCN(CC)C(=O)c1ccc(Oc2ccc([N+](=O)[O-])cc2Cl)cc1 | 18
O=C(COC(=O)c1ccccc1O)Nc1cc([N+](=O)[O-])ccc1Cl | 9
O=C(O)C/C=C(\NC(=O)OCc1ccccc1)C(=O)OCc1ccccc1 | -1
COCCn1c(SCC(=O)Nc2ccccc2OC)nc2ccccc21 | -5
CC(=O)n1cc(N(C(=O)CCl)c2ccc([N+](=O)[O-])cc2)c2ccccc21 | 14
O=C(Nc1nnc(C2CC2)s1)c1cccnc1Oc1ccc(Cl)cc1 | 15
Cc1cccc(NC(=O)CCC(=O)OCc2ccc(Br)cc2)c1 | -22
COC(=O)c1ccccc1NC(=O)CSc1nnc(-c2cccnc2)n1C | 20
COc1cc2c(cc1NC(=S)NC(=O)/C=C/c1ccco1)oc1ccccc12 | 12
COc1ccc(OC)c(C2(O)CSC(=Nc3cccnc3)N2Cc2ccco2)c1 (stereo not given) | -2

The list goes on.
SMILES | Biofilm kill mix
CC1(C)CC(=O)C(CC(=O)NC2CCCc3ccccc32)C(=O)C1 (stereo not given) | 26
Cc1ccc(C2=NOC(C)(c3nnc(-c4ccc(F)cc4)o3)C2)cc1 (stereo not given) | 15
N#Cc1ccc(/C=N/NC(=O)c2cccc(S(=O)(=O)N3CCOCC3)c2)cc1 | -2
CCCCN(C(=O)CSc1nncn1-c1ccccc1)c1c(N)n(Cc2ccccc2)c(=O)[nH]c1=O | -13
CCN1C(=O)C(CC(=O)Nc2ccccc2)S/C1=N\c1ccccn1 (stereo not given) | 20
Cc1ccc(/C=N/NC(=O)CNC(=O)c2ccc(S(=O)(=O)N3CCCC3)cc2)o1 | -8
Cc1ccc(C)n1-c1sc2c(c1C(=O)O)CCCC2 | 14
CCOc1ccc(C(C)NC(=S)NC2CCCCC2)cc1 (stereo not given) | 18
CNS(=O)(=O)c1ccc2nc(NC(=O)c3ccc(N4C(=O)CCC4=O)cc3)sc2c1 | 15
Cc1ccc(/C=C/C(=O)NCCCN2CCN(CCCNC(=O)/C=C/c3ccc(C)cc3)CC2)cc1 | 15
CCn1cc(C(=O)N2CCN(c3ccccc3OC)CC2)c2cc(OC)c(OC)cc2c1=O | 14
C/C(=N\O)C(C)(C)Nc1ccccc1F | 16

Screening data as filed in PubChem.
